Screening results (PubChem BioAssay)
NPYLR7 agonist – agonists of mosquito NPYLR7 receptor, primary screen, cell-based, Aedes aegypti, calcium fluorescence, mosquito biting behavior; 270,000 tested, 0.15% active; HEK293T NPYLR7/Galpha15, GCaMP6s calcium fluorescence; activation, % at 10 µM; in the data active = activation above about 40%;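 also: 0% = vehicle and 100% = reference agonist at the receptor; some compounds past the cut are filed as inactive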
NPYLR7 agonist max-min – also measured in NPYLR7 agonist; calls as there; activation, %; measured here: Max-Min RFU normalised activation; some inactives read as strong as hits;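 span of the calcium signal over five minutes; 0% = vehicle and 100% = native peptide agonist; compound fluorescence can raise it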
Active calls of the source: *. Not all compounds are listed. The share of hits here may be higher or lower than overall.

SMILES | NPYLR7 agonist | NPYLR7 agonist max-min
Cc1nc(-c2ccc(-c3cccs3)s2)n(CC(=O)N2CCCC(CO)C2)c1C (stereo not drawn) | 12 | 5
Oc1cccc(CN2CCCn3cccc3C2c2ccc(F)cc2)c1O (stereo not drawn) | 3 | 14
Cc1cc(C(=O)N2C[C@H]3C[C@H](C2)[C@@H]2CCCC(=O)N2C3)n(CCN(C)C)n1 | 8 | 6
CCCc1cnc2c(c1SCc1ccccc1)c(=O)n(C)c(=O)n2C | 6 | 6
c1cnc(Oc2cccc(CNC3CC3)c2)nc1 | 5 | 1
O=c1c2cc3c(=O)n(-c4ccccc4Cl)ccc3nc2ccn1Cc1cccnc1 | -9 | -15
CC1(C(=O)NCC2CC2)Cc2c(-c3cccc(C(N)=O)c3)ccnc2O1 (stereo not drawn) | 11 | 25
CCCCCCN(C(=O)Nc1ccccc1Br)C(CC)c1nc2ccccc2c(=O)n1-c1ccc(F)cc1 (stereo not drawn) | 0 | 14
Cc1nn(-c2ccc(F)cc2)c(C)c1Cn1ccnc1-c1ccc(CO)o1 | -3 | -4
O=C(c1cn(Cc2ccccc2)nc1-c1cccnc1)N1CCCCC1 | 4 | -3
Cc1ncc(C(=O)NCC2CCN(Cc3cccnc3)CC2)cn1 | 28 | 15
COc1ccc(CCN(C)c2cc(-c3ccccc3)nc(SCc3ccc(C(=O)NCc4ccccn4)o3)n2)cc1OC | 3 | 10
CC1(C(=O)NCc2ccc3c(c2)OCO3)CCN1CCOc1ccccc1 (stereo not drawn) | 0 | -1
CCC(CCO)NC(=O)Nc1sc(C)nc1C (stereo not drawn) | 0 | -1
COCCNS(=O)(=O)c1ccc(OC)c(N2CCN(C(=O)CCCCCCl)CC2)c1 | 16 | 14
Cc1nn(C)c(Cl)c1C(=O)NCc1cccc(CN(C)C(C)C)c1 | 1 | 0
Cc1ccc(C(CC(=O)N2CCN(c3cccc(C(F)(F)F)c3)CC2)c2c[nH]c3ccccc23)cc1 (stereo not drawn) | 0 | 3
CCOC(=O)Cn1c(=O)c2c(nc(N3CCOCC3)n2Cc2ccccc2)n(C)c1=O | -5 | -9
C=CCCC(=O)N1CCN(c2nccc(-c3ccc(N4CCOCC4)cc3)n2)CC1 | 4 | 1
FC(F)(F)Oc1cccc(-c2cc3c(cn2)ncn3Cc2ccccc2)c1 | 12 | 3
COc1ccc(OCC(=O)N=Nc2c(O)[nH]c3ccc(Cl)cc23)cc1 | 1 | -1
C/C=C(\C)C(=O)N1CCN(c2cc(S(=O)(=O)N3CCc4cc(OC)c(OC)cc4C3)ccc2OC)CC1 | 19 | 11
COc1ccc(-c2csc(-n3[nH]c(-c4ccccc4)c(N=Nc4cccc(OC)c4)c3=O)n2)cc1 | -1 | 6
CC(C)(C)OCC(O)CN1CCC(=O)N(CC(=O)C(C)(C)C)Cc2ccccc21 (stereo not drawn) | -4 | 11
COCCN1C=C(C(=O)OC)C(c2ccsc2)C(C(=O)OC)=C1 | 0 | -1
SMILES | NPYLR7 agonist | NPYLR7 agonist max-min
COc1cccc(C(=O)N2CCSC23CCN(C(=O)c2ccc(Cl)cc2)CC3)c1 | -5 | -4
CCOP(=O)(CNC(=O)CCC(=O)c1ccc(CCCC2CC2)cc1)OCC | -9 | -15
COc1cc2c(cc1OC)CN(S(=O)(=O)c1ccc(OC)c(N3CCN(C(=O)C4(c5ccc(Cl)cc5)CCCC4)CC3)c1)CC2 | 3 | 0
COc1ccccc1-n1cc(C(=O)N2CCCC3(CNC(=O)O3)C2)cn1 (stereo not drawn) | 9 | 8
O=C(CCc1ccccc1)Nc1cccc(N2C(=O)CNC2=O)c1 | 7 | 3
COCCNc1nc(Nc2ccc(F)cc2)c2cnn(-c3ccccc3)c2n1 | 1 | -2
Cc1ccccc1C(=O)c1ccc(Nc2ccc(Br)cc2N)cc1Cl | 4 | 5
CN(NC(=O)c1c[nH]c(=O)c(Cl)c1)c1ccccc1 | 5 | 0
COc1ccc([C@H]2[C@@H](C(=O)N(C)CCc3ccccn3)c3ccccc3C(=O)N2Cc2ccccc2)cc1 | -11 | -14
Cc1cc(=O)n(CC(=O)NCCc2ccccc2)cn1 | -6 | -7
COCCCn1c(SCc2cc3c(cc2Cl)OCO3)nnc1-c1cc(-c2ccccc2)nc2ccccc12 | 0 | 8
Cc1occc1C(=O)N1CCC(n2c(Cc3ccccc3)nc3ccccc32)CC1 | 2 | 10
Cc1[nH]n(-c2nc3ccccc3s2)c(=O)c1C=NC(C)c1ccccc1 (stereo not drawn) | 2 | 2
COc1ccc(OC)c(CCNc2nc3cnc(-c4ccc(Cl)cc4)cc3n2C)c1 | 83* | 62*
Nc1c(C(=O)Nc2ccc(Cl)cc2)c2ccccn2c1C(=O)c1ccc(F)cc1 | -2 | -10
O=C(Cn1nc(-c2ccccc2)c2sc(N3CCOCC3)nc2c1=O)c1ccc2c(c1)OCO2 | -6 | -11
NC(=O)c1ccncc1NC(=O)c1ccc(Cl)cn1 | 3 | 0
CCN(C(C)=O)C1CCN(Cc2ccc(C(=O)Nc3c(C)noc3C)cc2)C1 (stereo not drawn) | 26 | 17
Nc1[nH]n(-c2ccccc2)c(=O)c1N=Nc1ccc2ncsc2c1 | -4 | -5
CCNc1nnc(SCc2cccc([N+](=O)[O-])c2)s1 | -3 | -2
Cc1ccccc1CSc1nnc(C2CCCCC2)n1-c1ccccc1C | 12 | 17
CCC(=O)c1cccc(-c2ccc(NC(C)=O)cc2)c1 | -3 | -6
Cc1cccc(SC2CCN(CCC(F)(F)F)CC2)c1 | 10 | -1
COc1ccc(C=NN2CCN(Cc3ccc(C)cc3C)CC2)cc1 | -3 | -8
O=C(Nc1ccc([N+](=O)[O-])cc1)C1CCCN1S(=O)(=O)c1ccc(Cl)s1 (stereo not drawn) | 29 | 21
SMILES | NPYLR7 agonist | NPYLR7 agonist max-min
CC(C)c1nn(C)c2c1C(c1ccc(Sc3nncn3C)o1)CC(=O)N2 (stereo not drawn) | 2 | 0
CCOC(=O)C1(CC2CCCCO2)CCN(Cc2cc(F)ccc2-n2cccn2)CC1 (stereo not drawn) | 9 | 8
O=C(Nc1cc(Br)c[nH]c1=O)c1ccc(COc2ccccc2)cc1 | 1 | 3
NC(=O)CN(C(=O)/C=C/c1ccco1)c1ccccc1 | 4 | 1
O=C(Nc1cccc(-c2cccc(-c3ccc(F)cc3)n2)c1)c1ccc(F)cc1C(F)(F)F | 4 | 4
CN(C)c1nc(C(N)=O)nc(N2CCOCC2)n1 | 1 | -1
Cc1ccc(NC(=O)Cn2c(O)c(N=NC(=O)c3ccccc3N)c3ccccc32)cc1 | -5 | -10
Cc1ccc2ncn(C3CCN(C(=O)Cc4ccc(F)c(F)c4)CC3)c2c1 | 23 | 13
Cc1ccc2[nH]c(C(=O)O)c(CN(C)CC3COc4ccccc4O3)c2c1 (stereo not drawn) | 7 | 5
O=C(c1sccc1Cl)N1CCc2c(nc(-c3ccccc3)[nH]c2=O)C1 | 1 | 0
O=C(COc1ccc(NC(=O)c2ccco2)cc1)NCC(F)(F)F | -3 | -3
CCc1c(C)sc(NC(=O)c2cnn3c(C(F)(F)F)cc(-c4ccccc4)nc23)c1C(N)=O | -4 | 7
CN(CCCNC(=O)c1ccc(CSc2ccc3ccccc3n2)cc1)c1ccccc1 | 0 | -4
COC(=O)C[n+]1ccn2c(C)ccc2c1C | -13 | -19
Nc1nc(-c2ccc(Oc3ccccc3)cc2)c(CC(=O)O)s1 | -2 | 20
CCCCOc1ccc(C2=N/C(=C\C(C)=C\c3ccccc3)C(=O)O2)cc1 | -1 | -6
COCCN(Cc1nc(C(=O)NCCN2CCCC2)cs1)C(=O)Nc1ccc(OC)cc1 | 7 | 19
COCCN1C(=O)CC(Sc2ncccc2C(=O)O)C1=O (stereo not drawn) | -11 | -19
Cc1ccc(S(=O)(=O)N(CCC#N)C2CC2)c(F)c1 | 13 | 9
CC(=O)c1cc(C(=O)NCc2cccnc2N(C)Cc2ccccc2)cs1 | 10 | 3
COCCNc1oc2c(c1-c1cccc([N+](=O)[O-])c1)c(=O)oc1ccc(C)cc12 | -2 | -4
CCOc1ccc(-c2cc(C(=O)NCCSC)c3ccccc3n2)cc1 | -13 | -13
Cc1nc(-c2cccc(C(F)(F)F)c2)nc(N2CCN(C(=O)COCc3ccccc3)CC2)c1Cc1ccccc1 | -4 | 5
CCCCN(CC(=O)N(CCc1c[nH]c2ccccc12)Cc1ccc(Cl)c(Cl)c1)C(=O)C1C[C@H]1c1ccccc1 (stereo partly drawn) | 4 | 8
O=C(Cc1csc(-c2cccs2)n1)NCCCc1ccccc1 | 5 | 2
SMILES | NPYLR7 agonist | NPYLR7 agonist max-min
Cc1nc2c(OCCC3CCCCC3)cccn2c1N(C)Cc1cccs1 | 14 | 8
CSc1nnc(C(O)c2ccccc2)n1-c1ccccc1 (stereo not drawn) | 1 | -4
CC1(C(=O)NCC(=O)OCC2CC2)CCCN1C(=O)c1ccccc1 (stereo not drawn) | 12 | 9
Cn1c2c(c3cc(Br)ccc31)CCCC2=O | -5 | -11
COCCCNC(=O)CN(c1cccc([N+](=O)[O-])c1)S(=O)(=O)c1ccccc1 | -3 | -8
CC(C)CCc1nc(N2CCNCC2)c2cnn(-c3cccc(Cl)c3)c2n1 | -13 | -12
COc1ccc(CCN(C)C(=O)c2cc(-c3cccn3C)nn2-c2ccccc2)cc1OC | -10 | -18
CCN=C1N[C@@H]2[C@@H](O)[C@H](O)[C@@H](CO)O[C@@H]2S1 | 17 | 3
CCOC(=O)C1(C)CCCN1C(=O)c1ccc(-c2ccccc2)cc1 (stereo not drawn) | 0 | -3
CCCc1c(C(=O)N2CCN(c3nc4nccc(-c5ccc(C6CCCCC6)cc5)n4n3)CC2)cnn1-c1ccccc1 | 6 | 3
Cc1ccc(Cl)c(OC2CC3CCC(C2)N3C(=O)c2ccc(CSCc3cccs3)cc2)c1 (stereo not drawn) | 2 | 11
Cc1nc(N2CCC(C(=O)NCCc3ccccc3)CC2)nc2cc3c(cc12)CCC3 | 35 | 26
O=C(COc1ccc(Cl)cc1)Nc1nnc(SCC(=O)c2ccc(F)c(F)c2)s1 | 17 | 11
O=C(Nc1cccc(-n2cccn2)c1)C1CCCN1C(=O)c1ccsc1 (stereo not drawn) | 1 | -1
CCc1ccc2oc(Br)c(CC(N)=O)c2c1 | -2 | -2
Cc1nnc(SCCNC(=O)CC2CCc3ccccc32)s1 (stereo not drawn) | 0 | -4
CCc1cc(Oc2ccc(C)cc2C)nc(SCc2ccccc2C#N)n1 | 0 | 7
COC(=O)CC1C(=O)NCCN1Cc1csc(-c2ccsc2)n1 (stereo not drawn) | 2 | 0
CCN1CCN(C(c2cccc(F)c2)c2c(O)cc(C)n(Cc3ccc(OC)cc3)c2=O)CC1 (stereo not drawn) | 9 | 1
O=C(Nc1cccc(F)c1)Nc1ccnn1C1CCN(C(=O)c2ccc3c(c2)OCO3)CC1 | 2 | 1
O=C1NC(=Nc2ccccc2Cl)S/C1=C/c1ccc2c(c1)OCO2 | -11 | -15
O=C(O)c1cc2cc(Cl)sc2s1 | -7 | -10
CCn1nnc2c(=O)n(CC(=O)N3CCCCC3)cnc21 | 0 | 34
CN(CC1CCCC1)C(=O)Nc1ccccc1OCC(=O)N1CCOCC1 | 5 | 5
COCCN1C(=O)N(CCc2ccccc2)C(=O)C12CCN(Cc1ccoc1)CC2 | -17 | -22
O=c1c(Cl)c(NC2CCC(O)CC2)cnn1-c1ccc(Cl)cc1Cl (stereo not drawn) | -5 | -6
